gsp agonist: activates gsp, the McCune-Albright syndrome mutation. gsp mutant cells, cAMP HTRF, 30 min; control for the full effect not named in the record. Potency, µM (series often up to 76.9 µM), inactives show top-dose activation (cAMP increase), most hits filed as activators. hit rate 0.13% among 340,000; active = well fitted activation curve with a large enough effect; inconclusive = small, poorly fitted or top-dose-only effect, or another doubt; inactive = no such curve, though single readings can be large or run the other way; cell line not stated here;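 further: phosphodiesterase inhibitor Ro 20-1724 added with compounds to block cAMP breakdown; potency means the concentration at half of the fitted maximal effect; nearly all actives have a fitted effect of over 60% in size; about a fifth of the inactives were tested at one dose only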
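Cells stably selected in G418 were plated at 2000/well, grown 16-24 hr, then given compounds in DMSO with the PDE inhibitor […] (300 uM solution added) for 30 min at 37C; cAMP was read by HTRF.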
TRPML1 agonist: agonists of human TRPML1 channel; Q9GZU1; TRPML1-expressing cells, Ca2+ dye fluorescence, FDSS; host cell line not named in the record; reference of the full effect not given here; activation, % (concentration not given with the values); hit rate 0.12% among 410,000; AID 624414; in the data active = activation above about 50%; inconclusive = about 30% to 50%; inactive = below about 30%; further: 0% is about no effect; the text of the record puts the active cut at 80%
Target sequence (Q9GZU1 whole entry, looked up): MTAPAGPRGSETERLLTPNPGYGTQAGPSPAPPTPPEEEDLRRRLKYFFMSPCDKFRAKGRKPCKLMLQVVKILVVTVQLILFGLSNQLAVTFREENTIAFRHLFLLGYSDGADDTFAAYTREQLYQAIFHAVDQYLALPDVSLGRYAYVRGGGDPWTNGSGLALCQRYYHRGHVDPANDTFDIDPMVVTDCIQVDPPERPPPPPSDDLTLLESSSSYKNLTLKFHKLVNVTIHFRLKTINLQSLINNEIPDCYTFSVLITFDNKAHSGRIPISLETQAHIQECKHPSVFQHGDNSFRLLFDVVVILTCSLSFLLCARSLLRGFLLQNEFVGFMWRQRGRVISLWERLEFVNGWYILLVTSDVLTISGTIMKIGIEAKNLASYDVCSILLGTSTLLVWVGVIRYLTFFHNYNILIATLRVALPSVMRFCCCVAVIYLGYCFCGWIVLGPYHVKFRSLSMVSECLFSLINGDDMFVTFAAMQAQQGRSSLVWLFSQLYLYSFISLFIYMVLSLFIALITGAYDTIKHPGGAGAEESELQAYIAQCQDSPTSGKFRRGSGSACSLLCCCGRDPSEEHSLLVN
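TRPML1-DL cells, Tet-induced overnight (~16 h, 37 degrees C), loaded 45-90 min at room temperature with Ca8 no-wash calcium dye plus quencher. FDSS fluorescence: 10 s baseline, compound pin-transfer, 110 s agonist read, then EC80 54-4 (4uM final) and 110 s antagonist read.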
ClpP mod: qHTS Assay for Activators of ClpP; purified B. subtilis ClpP, FRET peptide cleavage, 20 min; Potency, µM (top dose mostly 57.5 µM), without a hit: at the top dose activity change, negative = active; AID 651965, 2013; hit rate 1.9% among 340,000; ATP-dependent Clp protease proteolytic subunit (Bacillus subtilis (strain 168)), P80244; active = well fitted falling curve with a large enough effect; inconclusive = small, poorly fitted or top-dose-only effect; inactive = no such curve, though single readings can be large or run the other way; further: potency means the concentration at half of the fitted maximal effect; the source files actives as falling curves though it sought activators and does not explain the sign; nearly all actives have a fitted effect of over 65% in size; many hits overshoot -100%
Target sequence (P80244 whole entry, looked up): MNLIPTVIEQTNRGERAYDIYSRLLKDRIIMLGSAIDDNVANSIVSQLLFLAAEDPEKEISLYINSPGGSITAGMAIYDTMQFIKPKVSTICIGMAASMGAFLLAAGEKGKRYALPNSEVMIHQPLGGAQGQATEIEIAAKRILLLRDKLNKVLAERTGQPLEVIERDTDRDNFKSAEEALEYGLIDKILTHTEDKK
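Buffer: 100 mM Tris/HCl pH8, 100 mM KCl, 0.05% low protease BSA, 2.5% glycerol, 0.01% Tween-20. ClpP 10 microg/mL final; 20 min RT; delta FRET normalized to ADEP and DMSO controls.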
gsp antagonist: antagonizes gsp, the McCune-Albright syndrome mutation; Potency, µM (series often up to 76.9 µM), for the others: at the top dose activity change, negative = inhibition, hits mostly inhibitors; gsp-mutant cells, cAMP HTRF, 30 min; control for the full effect not named in the record; hit rate 0.4% among 340,000; active = falling curve of any shape with a large fitted effect; inconclusive = falling curve, mostly with a smaller effect; inactive = flat or rising curve; cell line not stated here;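 further: intracellular cAMP measured with PDE inhibitor Ro 20-1724 present during compound exposure; potency means the concentration at half of the fitted maximal effect; on the % scale 0 is the no-effect control and ±100 the full control effect; nearly all actives have a fitted effect of over 65% in size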
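HTRF cAMP measurement after 30 min RT detection following 30 min, 37C compound treatment alongside […] (added as 300 uM solution) in G418-selected cells seeded at 2000/well and grown 16–24 h.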
Menin-MLL FL inh: displaces fluorescein MLL peptide from human menin; Fluorescence polarization, fluorescein-MLL peptide displacement from menin; FP activity change, % at 61.4 µM; 290,000 tested, under 10 active; AID 1766; inconclusive = falling polarisation curve, or a change in total fluorescence; inactive = total fluorescence flat and polarisation flat or rising; no compound was filed as active; the % refers to the polarisation; negative = inhibition;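 further: % of control where 0% means no effect; inhibitors lower the polarisation; unlabelled MLL peptide was the positive control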
TRPML1 blocker: inhibitors of human TRPML1 channel. TRPML1-inducible cells, Ca2+ dye fluorescence, FDSS; active compounds read low; inhibition of EC80 agonist-evoked calcium signal. activity change, negative = inhibition, % (test concentration not listed). hit rate 0.02% among 390,000; in the data active means activity change below about -50%; inconclusive means about -30% to -50%; inactive means above about -30%;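 further: stimulus is agonist 54-4 at its EC80 concentration; on the % scale 0 is the no-effect control and ±100 the full control effect; compound concentration not given in the record; the text of the record puts the active cut at -80%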
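Tet-induced TRPML1-DL cells loaded with Ca8 no-wash calcium dye were read kinetically on FDSS. Compound addition was followed by EC80 agonist 54-4 (4 uM final); inhibition was read over 110 s.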
Active calls of the source: *; ? = inconclusive; · = not tested or not shown; [ ] = dose if it differs, or a comment. Rows are unselected (roughly 2.1% active in at least one column).

SMILES	gsp agonist	TRPML1 agonist	ClpP mod	gsp antagonist	Menin-MLL FL inh	TRPML1 blocker
COc1ccc(C(CNC(=O)c2cc(SC)ccc2Cl)N(C)C)cc1 (configuration not stated)	36%	·	-2.8%	-7%	1.1	·
COc1cc(NC(=O)NS(=O)(=O)c2ccc(C)cc2)cc(OC)c1	-5%	-0.7	0.7%	8%	1.5	-13
N/C(=N\OS(=O)(=O)c1ccc2ccccc2c1)c1cccnc1	-7%	-0.1	-1.5%	-13%	-4.1	17
Cc1ccc(NS(=O)(=O)c2ccc(NC(=O)C3CC3)cc2)c(C)c1	25%	0.3	0.8%	-20%	?	11
O=C(O)c1ccccc1Sc1ncnc2sccc12	?	-0.3	-1.7%	-2%	5.1	-14
Cc1nn(Cc2ccc(Cl)cc2)c(C)c1NC(=O)CCCn1nc([N+](=O)[O-])c(Cl)c1C	8%	0.7	-5.1%	-17%	-1.2	-19
Cc1cccc(NS(=O)(=O)c2ccc(Cl)c(C(=O)Nc3ccccc3C)c2)c1	·	-0.8	-0.9%	·	·	-10
C[C@H](NC(=O)[C@@H]1Cc2ccccc2CN1)C(=O)NC1CCCC1	-21%	-0.2	1.6%	8%	2.8	-8
COc1ccccc1OCC(=O)N/N=C1\CCc2ccccc21	1%	-1.0	2.2%	10%	2.1	-9
Cc1cccc(OCc2n[nH]c(=S)o2)c1	-22%	-0.7	-0.1%	-2%	1.9	2
CCc1nn(CC(=O)Nc2cccc(C(C)=O)c2)c(=O)c2cc3sccc3n12	·	-0.5	-23%	·	·	10
COc1ccc(C(=O)NNC(=O)C23CC4CC(CC(C4)C2)C3)c(OC)c1	-16%[15.4 µM]	-0.6	-0.2%	2%	6.1	-5
O=C(Nc1ccc(Cl)cc1Cl)c1n[nH]c(Cn2cncn2)n1	20%	-0.9	0.4%	-6%	-1.5	13
Cc1ccc(CS(=O)(=O)CCC(=O)NCCN(C)Cc2ccccc2)cc1	-36%[inhibitor]	1.0	-2.5%	0%	2.5	-2
O=C(CN1CCCCCCC1)NC(=O)NC1CCCCC1	-6%[15.4 µM]	-0.4	·	·	1.6	6

Copied from above, 2 compounds:
SMILES	gsp agonist	TRPML1 agonist	ClpP mod	gsp antagonist	Menin-MLL FL inh	TRPML1 blocker
Cc1ccc(CS(=O)(=O)CCC(=O)NCCN(C)Cc2ccccc2)cc1	-36%[inhibitor]	1.0	-2.5%	0%	2.5	-2
O=C(CN1CCCCCCC1)NC(=O)NC1CCCCC1	-6%[15.4 µM]	-0.4	·	·	1.6	6

The list continues:
SMILES	gsp agonist	TRPML1 agonist	ClpP mod	gsp antagonist	Menin-MLL FL inh	TRPML1 blocker
COc1ccc(C(=O)Nc2cccc(C(C)=O)c2)cc1S(=O)(=O)N1CCOCC1	0%	-0.3	-3.8%	1%	?	-12
CCOc1ccccc1CNC(=O)Cn1ncn2nc(-c3cccs3)cc2c1=O	·	0.7	-1.9%	·	·	-14
Cn1cc(S(=O)(=O)N2CCN(c3ccccc3F)CC2)c(=O)n(C)c1=O	7%	-0.1	0.9%	6%	-2.0	-6
Cc1cccc(-c2nc3c(c(SCC(=O)N4CCOCC4)n2)CCCC3)c1	-20%	1.7	-0.1%	-9%	1.4	-5
O=C(Nc1cccc(-n2cnnn2)c1)c1cccnc1	-17%	0.4	-0.8%	2%	-3.9	14
O=C(C1CCN(c2ncnc3c2nc2n3CCCCC2)CC1)N1CCCCC1	10%	-1.3	-3.2%	-3%	·	82
CCOC(=O)N1CCN(C2CC(=O)N(c3ccc(Oc4ccccc4)cc3)C2=O)CC1 (configuration not stated)	5%	0.1	-0.2%	-6%	1.5	15
CC(C)C12CN3CC(C(C)C)(CN(C1)C3c1ccccc1O)C2=O (configuration not stated)	-11%	2.6	-3.2%	-4%	1.1	30
O=c1c2ccccc2[nH]c(=S)n1Cc1cccnc1	-6%	-0.5	-0.7%	9%	0.0	-4
O=C(NCC1CC1)c1ccc(Nc2nc3ccc(Br)cc3[nH]2)cc1	3%	-1.3	3.9%	-23%	1.7	0
Cc1ccc(NC(=O)C2CCN(c3nc4ccccc4nc3C(F)(F)F)CC2)cc1F	·	-0.7	26%	·	·	-3
CCC(=O)c1ccc(OCCSc2ncccn2)cc1	?	-0.7	0.0%	3%	-1.5	-10
COc1ccccc1NS(=O)(=O)c1cccc(C(=O)N2CC(C)OC(C)C2)c1 (configuration not stated)	20%[15.4 µM]	-0.2	-0.3%	2%	·	7
Cc1cccc2cc(CN(Cc3nnnn3Cc3ccco3)C3CCCC3)c3nnnn3c12	?	1.1	-1.8%	-12%	3.8	14
O=C(O)CNC(=O)c1ccccc1F	6%	-0.4	2.1%	1%	1.9	8
O=C(Nc1cn(-c2ccccc2)nc1-c1ccc(Cl)cc1)c1ccccc1	-9%	-0.4	?	-2%	3.2	27
O=c1c2ccccc2nc(-c2cccs2)n1-c1cccc2ccccc12	-8%	3.6	-16%	-15%	7.2	12
COc1ccc(OCc2cccc(C(=O)NN)c2)cc1	-10%	-0.9	-1.4%	-1%	8.2	21
O=C(CCCN1C(=O)/C(=C\c2cccs2)SC1=S)Nc1ccccc1O	-66%[inhibitor]	-0.5	0.3%	·	·	14
CC(C)(C)c1ccc(CS(=O)(=O)CC2(O)CCN(C(=O)c3cccc(C(F)(F)F)c3)CC2)cc1	-1%	-0.4	-1.2%	6%	0.6	-9
O=C(/C=C/Nc1ccc(F)cc1)c1ccco1	-14%	-1.1	-1.8%	7%	1.2	-1
COC(=O)CN(C)C(=O)c1ccc(OC)c(OC2CCN(C(C)C)CC2)c1	-25%	-0.3	·	9%	2.2	-5
Cc1cc(Cl)ccc1OC(C)C(=O)Nc1ccccc1N1CCOCC1 (configuration not stated)	-5%[15.4 µM]	0.6	-1.0%	-13%	-4.1	15
CCOc1ccccc1CNC(=O)c1cnc2sc(N(CC)CC)nn2c1=O	·	0.3	8.9µM*	·	·	-14
CC(=O)CCc1c(C)nc2ccc(C(=O)O)cc2c1Cl	3%[15.4 µM]	-0.3	-2.8%	-6%	0.1	-7
CC(C)c1ccc(/C=C2\Oc3c(ccc(O)c3CN3CCN(C)CC3)C2=O)cc1	-75%[inhibitor]	23	-3.4%	-13%	?	-3
COc1ccc(/C=C(\C#N)C(=O)OCC(=O)Nc2ccc(C(C)(C)C)cc2)cc1	3%[15.4 µM]	0.7	-5.6%	0%	10	14
O=C(CCS(=O)(=O)c1ccccc1)Nc1ccc(S(=O)(=O)Nc2ncccn2)cc1	5%	1.1	·	8%	5.3	-17
Cn1c(=O)[nH]c(=O)c2c1nc(N1CCCC1)n2CC(O)COc1ccccc1 (configuration not stated)	-48%[inhibitor]	-0.3	-4.7%	-5%	0.3	-16
Clc1ccc(-c2csc(N/N=C/c3cccnc3)n2)c(Cl)c1	-9%[15.4 µM]	2.0	-2.5%	4%	1.4	2

An excerpt from above in order of molecular weight, ascending:
SMILES	gsp agonist	TRPML1 agonist	ClpP mod	gsp antagonist	Menin-MLL FL inh	TRPML1 blocker
O=C(O)CNC(=O)c1ccccc1F	6%	-0.4	2.1%	1%	1.9	8
COc1ccc(OCc2cccc(C(=O)NN)c2)cc1	-10%	-0.9	-1.4%	-1%	8.2	21
CC(=O)CCc1c(C)nc2ccc(C(=O)O)cc2c1Cl	3%[15.4 µM]	-0.3	-2.8%	-6%	0.1	-7
Clc1ccc(-c2csc(N/N=C/c3cccnc3)n2)c(Cl)c1	-9%[15.4 µM]	2.0	-2.5%	4%	1.4	2
O=c1c2ccccc2nc(-c2cccs2)n1-c1cccc2ccccc12	-8%	3.6	-16%	-15%	7.2	12
O=C(Nc1cn(-c2ccccc2)nc1-c1ccc(Cl)cc1)c1ccccc1	-9%	-0.4	?	-2%	3.2	27
COC(=O)CN(C)C(=O)c1ccc(OC)c(OC2CCN(C(C)C)CC2)c1	-25%	-0.3	·	9%	2.2	-5
Cn1c(=O)[nH]c(=O)c2c1nc(N1CCCC1)n2CC(O)COc1ccccc1 (configuration not stated)	-48%[inhibitor]	-0.3	-4.7%	-5%	0.3	-16
CC(C)c1ccc(/C=C2\Oc3c(ccc(O)c3CN3CCN(C)CC3)C2=O)cc1	-75%[inhibitor]	23	-3.4%	-13%	?	-3
CCOc1ccccc1CNC(=O)c1cnc2sc(N(CC)CC)nn2c1=O	·	0.3	8.9µM*	·	·	-14
O=C(CCCN1C(=O)/C(=C\c2cccs2)SC1=S)Nc1ccccc1O	-66%[inhibitor]	-0.5	0.3%	·	·	14
O=C(CCS(=O)(=O)c1ccccc1)Nc1ccc(S(=O)(=O)Nc2ncccn2)cc1	5%	1.1	·	8%	5.3	-17
CC(C)(C)c1ccc(CS(=O)(=O)CC2(O)CCN(C(=O)c3cccc(C(F)(F)F)c3)CC2)cc1	-1%	-0.4	-1.2%	6%	0.6	-9

Other compounds
SMILES	gsp agonist	TRPML1 agonist	ClpP mod	gsp antagonist	Menin-MLL FL inh	TRPML1 blocker
Cc1ccc(CNc2nc3ccccc3n2C)cc1	-1%	0.1	-0.2%	-4%	1.6	20
Cc1ccccc1CSc1cn(CCNC(=O)c2cccs2)c2ccccc12	·	2.8	-6.1%	·	·	4
Cc1cc(=O)oc2c3c(ccc12)OCN(Cc1ccc(Cl)cc1)C3	·	-0.2	16%	·	·	-13
O=C(CSc1nnc(COc2ccccc2)o1)N1CCCC1	13%	0.1	·	-4%	·	10
O=C(Nc1cccnc1)c1ccccc1-c1nc(-c2ccccc2F)no1	-37%[inhibitor]	-0.4	0.9%	-10%	0.2	7
Cc1nn(-c2ccccc2)c2sc(C(=O)OC3CCOC3=O)cc12 (configuration not stated)	3%	-1.4	?	-34%	0.4	27
COc1cccc(CNC(=O)c2ccc3c(c2)N(C)C(=O)C2CCCCN32)c1 (configuration not stated)	·	0.3	-20%	·	·	11
CCOC(=O)c1sc(/N=C/c2ccc(O)cc2O)cc1C	-18%	0.5	?	1%	24	43
CC(C)C(=O)Nc1ccc(COc2ccccc2CN(Cc2ccccc2)C(=O)OC(C)(C)C)cc1	·	0.7	-1.6%	-3%	·	51
CCCc1nnc(SCc2ccc(OC)cc2)n1N	?	1.0	-1.6%	12%	3.3	28
COC(=O)c1ccc(Sc2ccc(Cl)cc2)c(N)c1	-14%	5.7	25µM*	-13%	2.2	-6
CC(C)CNS(=O)(=O)c1ccc(Br)cc1N1CCC[C@@H]1CO	·	-0.3	-1.5%	-3%	·	7
COc1ccccc1N1CC(C(=O)OC(C)C(=O)Nc2ccc(F)cc2)CC1=O (configuration not stated)	-95%[inhibitor]	-0.1	-0.8%	·	·	20
Cc1cc2ncc(Cl)nc2cc1C	-3%[15.4 µM]	0.9	-7.0%	12%	2.1	0
Fc1ccc(-n2c(Cc3ccccc3)nnc2SCc2nc(-c3ccc(Cl)cc3)no2)cc1	-38%[inhibitor]	6.9	0.4%	-21%	1.2	0
